# Screens: PubChem BioAssay, several laboratories
# HSV replic up – enhancers of HSV replication in host cells, fold increase, host cell viability | HSV replication augmentation in cells | maximum fold increase | actives 0.005% (n = 220,000) | AID 1956, 2009;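 active = peak rise of 1.5-fold or more in the series; tested in PC3 cells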;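 also: first round at 10 µM; read as green reporter fluorescence; hits show the peak of a series up to 25 µM; 1 = signal of infected wells without compound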
# RGS16-Gao – modulators of RGS16 binding to Galphao, primary screen, biochemical, human proteins, multiplexed bead flow cytometry. AID 1441, 2008. actives 0.38% (n = 220,000). binding response (% of control), % at 10 µM. bead-based flow cytometry RGS16-Galphao binding, fluorescence; actives lie on both sides;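 active = below 25% or above 175%, edge rows of some plates excepted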;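 also: Galphao activated by GDP with aluminum fluoride before binding; 100% = wells without compound and 0% = beads without RGS; some results beyond the cut were filed as inactive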
# Target sequence (O15492 whole entry, looked up): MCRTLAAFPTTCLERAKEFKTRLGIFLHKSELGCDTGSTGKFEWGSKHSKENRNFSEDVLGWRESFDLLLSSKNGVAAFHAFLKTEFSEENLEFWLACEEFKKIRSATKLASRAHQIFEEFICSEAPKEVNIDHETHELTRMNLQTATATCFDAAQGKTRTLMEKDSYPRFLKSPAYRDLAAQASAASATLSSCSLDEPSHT
# Target sequence (P09471 whole entry, looked up): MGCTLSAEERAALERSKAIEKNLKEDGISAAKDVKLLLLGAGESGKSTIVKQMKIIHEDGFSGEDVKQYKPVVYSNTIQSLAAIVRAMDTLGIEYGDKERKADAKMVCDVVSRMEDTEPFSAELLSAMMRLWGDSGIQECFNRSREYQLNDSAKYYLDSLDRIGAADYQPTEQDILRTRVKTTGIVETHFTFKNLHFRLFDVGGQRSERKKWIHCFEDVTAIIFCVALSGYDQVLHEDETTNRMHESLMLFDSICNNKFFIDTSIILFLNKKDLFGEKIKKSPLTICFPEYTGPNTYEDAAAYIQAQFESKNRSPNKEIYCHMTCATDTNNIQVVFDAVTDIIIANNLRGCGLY
# GALR2 agonist – GALR2 receptor agonists, primary screen, cell-based. Galanin receptor type 2 (Homo sapiens), O43603. GALR2-expressing cells, agonist activation read-out. activation, %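 (tested at 5 µM)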. actives 0.48% (n = 140,000). AID 803, 2007;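 active = above mean plus 3 SD of all compounds, about 5% in these data, not always enough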;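 also: 0% = vehicle buffer wells and 100% = reference agonist at full effect; tested in CHO reporter cells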
# Target sequence (O43603 whole entry, looked up): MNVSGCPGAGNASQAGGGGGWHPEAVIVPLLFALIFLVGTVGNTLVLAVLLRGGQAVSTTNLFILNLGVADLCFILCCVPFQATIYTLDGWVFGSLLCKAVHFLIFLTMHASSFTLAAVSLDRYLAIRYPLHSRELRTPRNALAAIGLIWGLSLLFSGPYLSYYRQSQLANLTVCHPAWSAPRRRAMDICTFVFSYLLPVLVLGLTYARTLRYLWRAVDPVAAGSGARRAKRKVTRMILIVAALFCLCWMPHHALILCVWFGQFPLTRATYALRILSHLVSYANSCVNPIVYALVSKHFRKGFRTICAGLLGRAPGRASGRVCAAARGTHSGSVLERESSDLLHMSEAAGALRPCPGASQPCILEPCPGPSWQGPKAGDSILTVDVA
# PKD1 inh – inhibitors of human PKD1 kinase, biochemical, fluorescence polarization; actives 0.056% (n = 200,000); Serine/threonine-protein kinase D1 (Homo sapiens), Q15139; PKD1 kinase fluorescence polarization assay; inhibition, %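 (about 10 µM by stock and volumes)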;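 active = inhibition of 50% or more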;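 also: controls were vehicle for no effect and a reference inhibitor for full effect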
# Insulin prom inh – inhibitors of insulin promoter-driven GFP, primary screen, imaging, TRM-6 cells (human fetal islet line), eGFP reporter, cell count; actives 0.9% (n = 130,000); inhibition, % at 2 µM; reporter expression induced with tamoxifen;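 active = inhibition above the mean plus 3 SD, with well images judged a real hit on visual review, cut at about 60% in these data, passing the limit was not always enough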
# Insulin prom inh cell count – recorded beside Insulin prom inh, whose call it bears; normalized cell count, %; measured here: cell count, toxicity; reference of the scale not given here;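 cells exposed to compound for 48 h; stained nuclei by imaging scaled within each plate; lower means fewer cells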
# HSV replic up primary fold – second read-out of HSV replic up, no call of its own (marks repeat the call); fold increase; compound at 10 µM; measured here: primary screen fold increase 10 uM; tested in PC3 cells;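 GFP signal in the first replicate; 1 = infected wells without compound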
# Starred values were filed as active, the others as inactive; i = inactive; nt = no result given.
SMILES,HSV replic up,HSV replic up primary fold,RGS16-Gao,GALR2 agonist,PKD1 inh,Insulin prom inh,Insulin prom inh cell count
CC(NC(=S)NCCCN1CCOCC1)C1CC2CCC1C2 (stereo not given),i,0.86,109.5,nt,-2.0,-41.7,139.7
CCOCCCNC(=O)C1CCN(S(=O)(=O)CC)CC1,i,0.94,102.9,-1.4,14.7,50.0,104.9
O=C(CCN1C(=O)/C(=C/c2ccccc2Cl)SC1=S)NNC(=O)c1cccnc1,i,1.14,102.3,nt,nt,nt,nt
CO/N=C(\C(=O)N[C@@H]1C(=O)N2C(C(=O)O)=C(COC(C)=O)CS[C@H]12)c1csc(N)n1 (stereo in doubt),i,0.91,33.2,-1.4,-5.9,28.6,115.4
OC(COc1ccc2c(c1)OCO2)CN1CCCC1 (stereo not given),i,0.9,93.0,nt,-6.2,nt,nt
Cc1nn(C)c(C)c1/C=C1/SC(=S)NC1=O,nt,nt,106.4,-3.0,-1.4,-33.3,88.6
Cc1ccc(NC(=O)C[n+]2cc(-c3ccccc3)n3c2CCC3)cc1,i,0.87,104.6,nt,nt,nt,nt
O=S(=O)(c1ccc(Cl)nc1)N(Cc1ccccc1)Cc1ccccc1,i,1.34,98.4,1.0,-5.1,nt,nt
Cc1ccc(Cl)cc1N1CCN(C(=O)C2CCN(S(C)(=O)=O)CC2)CC1,i,0.96,98.2,nt,6.2,nt,nt
O=C(O)COc1ccccc1/C=N/NC(=O)c1cccc(S(=O)(=O)Nc2cccc(Cl)c2)c1,i,0.96,106.6,nt,10.7,nt,nt
O=C(/C=C/c1ccco1)Nc1cccc(-c2nc3ccccc3[nH]2)c1,nt,nt,98.3,-2.2,15.6,65.5,111.6
O=C(Nc1ccccn1)c1ccc(Br)c(S(=O)(=O)N2CCCCC2)c1,i,0.81,98.8,-1.0,-6.6,-34.6,106.4
CC(C)CN(Cc1cc(=O)oc2cc3c(cc12)CCCC3)CC(C)C,i,1.13,97.7,nt,nt,nt,nt
Cc1ccc2cccc(OC(=O)c3ccc4c(c3)OCCO4)c2n1,i,1.02,97.5,0.3,-3.5,nt,nt
Fc1cc(Cl)c(OCc2noc(-c3ccsc3)n2)c(Cl)c1,i,1.02,101.8,nt,nt,nt,nt
CC(=O)Nc1cc2c(=O)n(Cc3ccccc3)c(C)nc2cc1N1CCOCC1,i,0.96,105.5,0.3,9.2,nt,nt
CN(C)CCNC(=S)Nc1ccc(Br)cc1,nt,nt,100.7,-0.2,1.8,-58.3,76.4
Cc1cccc(C)c1NC(=O)CS(=O)CC(=O)NCCCc1ccccc1 (stereo not given),i,0.86,99.2,-0.3,0.8,-23.3,122.8
CCC(=O)N(c1ccc(F)cc1)C1C=CS(=O)(=O)C1 (stereo not given),i,0.84,102.2,-0.2,-5.8,0.0,78.0
COc1ccc(CCn2c(N)c(C(=O)NCc3ccco3)c3nc4ccccc4nc32)cc1OC,i,0.95,101.4,12.0*,-11.5,nt,nt
COc1c(Cl)cc(Cl)cc1CNc1ccc(S(N)(=O)=O)cc1,i,0.86,105.3,nt,6.3,nt,nt
Cc1ccc2c(c1)c(-c1ccccc1)nc1nnnn12,i,0.97,106.3,nt,4.6,-69.6,132.0
CN1C(=O)N(C)C2(c3ccccc3)N(C)C(=O)NC12c1ccccc1 (stereo not given),i,0.75,101.3,-1.5,-7.8,nt,nt
COc1ccc(-n2c(C)nc3c(cnn3-c3ccc(C)cc3)c2=O)cc1,i,0.97,102.8,nt,-9.6,25.0,82.8
COCC(=O)Nc1nc2n(n1)C(c1ccc(OC)cc1)CC(c1ccc(OC)cc1)N2 (stereo not given),i,0.94,97.5,-1.6,1.2,-41.7,101.2
Cc1ccc([N+](=O)[O-])cc1N1C(=O)CS/C1=N\NC(=O)c1cccnc1,i,1.06,107.7,nt,6.1,nt,nt
COc1cccc(C(=O)Nc2ccc(N3CCN(Cc4ccccc4)CC3)cc2)c1,i,0.89,103.2,-1.3,0.5,-16.7,165.7
COC(=O)COc1ccc(-c2ccc(F)cc2)cc1C=O,i,0.85,101.2,nt,-4.5,-450.0,44.1
COc1ccc(CC(=O)NNc2ncnc3c2cnn3-c2ccccc2)cc1,i,0.96,154.4,0.1,6.0,18.2,94.9
Cc1ccc(C)c(N2CCN(c3ncnc4c3cnn4-c3ccccc3)CC2)c1,i,0.83,101.6,-3.5,9.7,nt,nt
CCN(CC)C(=O)CC(c1ccc2c(c1)OCO2)c1c(O)cc(OC)cc1OC (stereo not given),i,1.08,104.9,nt,nt,nt,nt
Cc1cc(=O)oc(C)c1C(=O)NCCc1ccccc1,i,0.95,91.5,-1.2,-4.4,nt,nt
S=c1[nH]nc2n1CCCN2,i,0.96,101.5,nt,nt,nt,nt
Cn1c(=O)c2c(nc(N3CCOCC3)n2CC(=O)C23CC4CC(CC(C4)C2)C3)n(C)c1=O,i,0.96,63.2,-2.1,-0.4,-35.7,133.9
COc1ccc(C2SCC(=O)N2c2c(C)n(C)n(-c3ccccc3)c2=O)cc1OC (stereo not given),i,1.02,107.3,-1.4,-11.1,-6.7,70.3
COc1ccc(C2NC(=O)C(C#N)=C(S)N2c2ccccc2)cc1OC (stereo not given),i,1.02,107.1,nt,4.3,20.0,102.5
COCCCNC(=S)NC1CC2CCCC(C1)N2Cc1cccs1 (stereo not given),i,0.79,103.3,-1.7,-11.2,-14.3,149.8
CCOC(=O)C1C(=O)CC(C)(O)C(C(=O)OCC)C1c1ccc(SC)cc1 (stereo not given),i,1.07,98.1,nt,0.0,-66.7,116.8
Cc1nc(CSc2nnc3scc(-c4ccccc4)n23)cs1,i,0.94,89.9,-1.0,3.3,nt,nt
CCOC(=O)c1cc(C#N)c(Nc2ccc(C)cc2)nc1C(F)(F)F,i,1.14,98.5,nt,nt,nt,nt
O=C1C(Cl)=C(N2CCN(Cc3ccccc3)CC2)C(=O)N1c1ccccc1,i,0.98,90.0,-0.3,-1.8,nt,nt
CC(=O)c1ccc(NC(=O)COC(=O)c2ccccc2Sc2ccccc2C#N)cc1,i,1.09,98.4,-0.5,-3.5,nt,nt
CCOC(=O)N1CCC(NS(=O)(=O)c2ccc3c(c2)OCC(=O)N3)CC1,i,1,103.4,-1.6,0.3,nt,nt
OCCN1CCN(c2nc3ccccc3nc2-c2ccccc2)CC1,i,0.75,96.8,nt,1.7,-57.1,81.4
Cc1cc(C)cc(Nc2c3c(nc4ncnn24)CCC3)c1,i,0.91,55.8,nt,4.2,nt,nt
COc1ccc(CNC(=O)c2ccc(NS(=O)(=O)c3c(C)noc3C)cc2)cc1,i,1.01,99.1,-1.9,-5.2,nt,nt
CC(C)(C)C(=O)Nc1nc(C2CCCN2S(=O)(=O)c2ccc(Cl)cc2)cs1 (stereo not given),i,0.953,101.1,-1.9,5.3,3.1,111.4
Cn1cc(-c2ccccc2C(N)=O)c(=O)c2ccccc21,i,1,78.8,nt,0.4,8.3,42.0
O=S(=O)(Nc1ccc(Cl)cc1)c1ccc2c(c1)CCO2,i,1.11,97.0,nt,nt,nt,nt
CC1CN(S(=O)(=O)c2ccc(Cl)c(C(F)(F)F)c2)CC(C)O1 (stereo not given),i,1.01,106.5,-1.1,-3.9,-8.3,128.6
O=C(c1cccn2c(=O)c3cc4ccccc4cc3nc12)N1CCN(c2ccccc2)CC1,nt,nt,99.9,-0.6,3.8,-10.5,110.2
Cc1c(NS(=O)(=O)c2cccs2)c(=O)n(-c2ccccc2)n1C,i,0.93,104.5,-1.4,-7.5,nt,nt
Cc1c(NC(=S)Nc2ccccc2C(F)(F)F)cccc1[N+](=O)[O-],i,1.18,95.9,-1.2,-7.0,nt,nt
CC(NS(=O)(=O)c1ccc([N+](=O)[O-])cc1)C(c1cccs1)N1CCOCC1 (stereo not given),i,0.97,110.1,nt,-1.2,-81.8,118.0
COc1ccc(NC(=O)c2cccc(S(=O)(=O)N3CCOCC3)c2)cn1,i,0.89,101.8,-1.6,4.5,-14.8,127.1
O=C(/C=C/c1ccc(O)c(O)c1)c1ccccc1O,i,0.82,100.8,nt,nt,nt,nt
CCC1(CC)Cc2ccccc2C(=C(C#N)C#N)N1,i,0.93,97.9,-0.5,-3.4,6.2,88.6
O=C(c1cc(=O)[nH]c2ccccc12)N1CCN(c2ccc([N+](=O)[O-])cc2)CC1,i,1.06,94.8,nt,nt,nt,nt
CCn1c(=N)c(S(=O)(=O)c2ccccc2)cc2c(=O)n3ccccc3nc21,i,0.9,157.9,nt,-7.0,12.8,83.0
Cc1nn(CCO)c2c1C(=O)CCC2,i,0.98,101.5,-2.8,-5.1,44.0,91.4

# Of the compounds above, these contain a furan ring, fused or not.
SMILES,HSV replic up,HSV replic up primary fold,RGS16-Gao,GALR2 agonist,PKD1 inh,Insulin prom inh,Insulin prom inh cell count
O=C(/C=C/c1ccco1)Nc1cccc(-c2nc3ccccc3[nH]2)c1,nt,nt,98.3,-2.2,15.6,65.5,111.6
COc1ccc(CCn2c(N)c(C(=O)NCc3ccco3)c3nc4ccccc4nc32)cc1OC,i,0.95,101.4,12.0*,-11.5,nt,nt

# (listing goes on)
SMILES,HSV replic up,HSV replic up primary fold,RGS16-Gao,GALR2 agonist,PKD1 inh,Insulin prom inh,Insulin prom inh cell count
Clc1ccc2c(NCc3ccco3)ncnc2c1,i,1,130.6,-2.1,-5.0,78.6*,132.4*
Cc1ccc(Cl)cc1N1CCN(Cc2nc3ccsc3c(=O)[nH]2)CC1,i,0.97,98.1,-1.0,-5.3,nt,nt
Cc1n[nH]c(=O)nc1N/N=C/c1ccc(O)c([N+](=O)[O-])c1,i,1.03,102.4,-1.0,-5.2,-207.4,90.7
Fc1ccc(-c2csc(N3CCSCC3)n2)cc1,i,1.2,99.3,nt,-1.8,-109.1,69.9
Cc1cccc(NC(=O)c2ccccc2[N+](=O)[O-])n1,i,1.05,98.5,-1.1,-0.8,nt,nt
CC(CN1CCN(c2ccccc2)CC1)c1ccccc1 (stereo not given),i,1.15,111.6,-1.9,-2.1,nt,nt
Cc1ccc(-c2ccc(OCC(=O)N3CCOCC3)cc2)cc1,i,0.78,103.1,-0.2,-2.4,66.7,132.7
COc1cc2c(cc1NC(=O)COC(=O)CNS(=O)(=O)c1ccc(C)cc1)oc1ccccc12,i,0.98,58.9,-0.3,7.6,nt,nt
O=C(NCc1ccccc1)N1CCC(c2nc3ccccc3[nH]2)CC1,i,1.25,107.7,0.2,5.7,8.3,120.5
Cc1ccc(C(=O)OCC(=O)c2ccc(Cl)s2)s1,i,1.05,99.2,-0.2,-12.2,-28.9,177.4
Cc1cc(NC(=O)Nc2ccc(F)c(Cl)c2)no1,i,0.89,87.7,0.8,7.5,15.1,132.2
COc1ccccc1-n1nnnc1SCc1ccccc1,i,0.99,97.2,-1.6,2.7,19.1,109.2
Cc1ccc(N2Cc3ccccc3OC(C)C2=O)cc1 (stereo not given),i,0.76,103.3,-1.4,-8.2,nt,nt
Oc1ccc(-c2n[nH]c(=S)n2-c2ccc3c(c2)OCCO3)cc1,i,0.95,91.8,-0.8,32.1,16.7,96.7
O=C(Nc1nc(-c2ccccn2)cs1)c1ccccc1-n1cnnn1,i,1.02,96.7,nt,nt,nt,nt
CNC(=O)c1ccc(-c2nc(-c3ccccc3)cs2)cc1,i,0.97,105.1,nt,0.3,nt,nt
Cc1c(NS(=O)(=O)c2cc(NC(=O)CCN3CCCC(C)C3)ccc2Cl)c(=O)n(-c2ccccc2)n1C (stereo not given),i,0.94,105.4,nt,-1.8,-41.7,91.8
C(=N\Nc1ncnc2sc3c(c12)CCC3)/c1ccncc1,i,0.86,111.8,-2.1,3.9,nt,nt
Cc1ccc(-c2noc(CN3CCN(c4ccccc4F)CC3)n2)cc1,i,0.98,115.6,-1.6,-2.1,nt,nt
CCOC(=O)N1CCN(S(=O)(=O)c2ccc(C(=O)NNc3nc4ccc(Cl)cc4s3)cc2)CC1,i,0.76,99.1,-1.1,-3.4,2.4,99.6
COCCn1c(C)cc(/C=C2\NC(=S)N(C)C2=O)c1C,nt,nt,104.4,0.5,-4.7,-33.3,63.0
CCCCNC(=S)N(C)/N=C/c1c(C)[nH]c2ccccc12,i,1.04,136.8,-0.3,0.0,-108.1,82.1

# Sorted by the number under GALR2 agonist (ascending): 3 from the list above
SMILES	GALR2 agonist
C(=N\Nc1ncnc2sc3c(c12)CCC3)/c1ccncc1	-2.1
CCOC(=O)N1CCN(S(=O)(=O)c2ccc(C(=O)NNc3nc4ccc(Cl)cc4s3)cc2)CC1	-1.1
CCCCNC(=S)N(C)/N=C/c1c(C)[nH]c2ccccc12	-0.3
